High-throughput results from PubChem.
ugtP null kill – growth inhibition of S. aureus ugtP deletion strain | growth inhibition, % (no concentration beside the values) | AID 1259309 | 0.54% of 330,000 active | S. aureus RN4220 ugtP deletion, OD600 growth, 16 h; some inactives read as strong as hits;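 active = z-score under -3 and OD600 up to 0.15 on both plates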;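 note: plate controls were untreated wells for no effect and antibiotic for full effect; wells of about 80 µL received 100 nL stock; the first replicate is given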
Bead autofluor – counter-screen for toxin protease inhibitors: compound fluorescence; 3.1% of 360,000 active; compound autofluorescence counterscreen, microsphere flow cytometry; hits give high values; fluorescence intensity (no concentration beside the values); AID 624483;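 active = at least 3 SD above the mean of all compounds, about 16000 in these data; inconclusive = too few beads counted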;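 note: 100 nL of 1 mM stock went into each well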
RN4220 kill – kills Staphylococcus aureus RN4220; S. aureus RN4220 growth, OD600, 16 h; inhibition, % (concentration not given with the values); 0.33% of 330,000 active;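 active = z-score of -3 or lower and OD600 up to 0.18 on both plates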;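 note: plate controls were untreated cells for no effect and reference antibiotic for full effect; stock transfer was 100 nL into about 80 µL; one replicate is shown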
Mtb hypoxia inh – Mtb hypoxia fluorescent reporter inhibition; M. tuberculosis hypoxia-regulated fluorescent reporter, fluorescence; fluorescence inhibition, % (no concentration beside the values); 0.1% of 300,000 active;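 active = 35 to 45% if threefold the growth effect, above 45% if 1.5-fold the growth effect; inactive = the rest, general growth blockers included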;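 note: wells of about 50 µL received 100 nL stock; 0% = vehicle wells and 100% = reference inhibitor wells; whole bacteria with a GFP reporter of the hypoxia response; strong numbers were not always called active; many hits fall short of the cut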
BJeLR lethal – kills HRASV12-expressing BJeLR cells; BJeLR (HRASV12) viability, CellTiter-Glo ATP luminescence, 48 h; reference of the scale not given here; inhibition, % (concentration not given with the values); 0.17% of 300,000 active;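 active = replicate mean above 50%; inconclusive = above 50% but judged a plate artefact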;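 note: 50 nL library stock added to about 25 µL; numbers are from one replicate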
PrP 5UTR inh – suppresses PrP 5' UTR mRNA reporter expression | AID 488862 | cell-based PrP 5' UTR mRNA reporter, plate reader | inhibition, % (concentration not given with the values) | 0.35% of 340,000 active;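 active = every replicate at 50% or more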;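 note: 0 = median of the neutral control wells; tested in H4 reporter cells; numbers are from one replicate; inactives centre near -14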
Mtb hypoxia inh growth – also measured in Mtb hypoxia inh; calls as there; growth inhibition, %; measured here: M. tuberculosis growth (absorbance);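 0% = vehicle and 100% = reference antibiotic; read after six days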
Active calls of the source: *; ? = inconclusive; . = not tested or not shown.

SMILES | ugtP null kill | Bead autofluor | RN4220 kill | Mtb hypoxia inh | Mtb hypoxia inh growth | BJeLR lethal | PrP 5UTR inh
Cc1ccc(NC(=O)CN2C(=O)COc3ccc(S(=O)(=O)N4CCCC4)cc32)c(C)c1 | 10 | 5772 | 2.2 | 4 | 7 | 1 | -21
Cc1ccc(OCC(O)CN2CCN(CC(O)COC(C)C)CC2)c(C(C)(C)C)c1 (configuration not stated) | -1 | 11849 | 2.5 | 4 | 5 | -11 | -14
CCCc1[nH]n(-c2ccc(F)cc2)c(=O)c1C=Nc1ccc(C)cc1 | 1 | 2038 | 3.1 | -12 | -11 | -1 | -21
CC(=O)N1CCCc2cc(S(=O)(=O)N3CCCC(C(=O)Nc4ccc(C)cc4C)C3)ccc21 (configuration not stated) | 6 | 5805 | 1.9 | 15 | 0 | -4 | -24
Cc1[nH]c2ccc(F)cc2c1CCN(Cc1ccncc1)C(=S)Nc1ccc(F)cc1 | 2 | 5654 | 3.9 | 7 | 9 | 5 | -20
Cc1ccc(C(=O)N/C(=C\c2ccc(-c3ccc(Br)cc3)o2)C(=O)NC2CCS(=O)(=O)C2)cc1 (configuration not stated) | 7 | 1939 | 4.0 | 11 | 4 | -2 | -1
Cc1ccccc1CC(=O)Nc1cccc(S(=O)(=O)N2CCCC2)c1 | 5 | 3992 | 3.8 | -8 | 5 | . | -17
Cc1cccc(N2CCN(S(=O)(=O)c3ccc4[nH]c(=O)c(=O)[nH]c4c3)CC2C)c1 (configuration not stated) | -3 | . | -1.2 | 5 | 2 | 7 | .
O=C(CN1C(=O)C2CC=CCC2C1=O)Nc1ccc(S(=O)(=O)Nc2ncccn2)cc1 (configuration not stated) | -8 | 3975 | 2.0 | 9 | 6 | 0 | -14
Cc1nc(C)n(CC(=O)c2ccc(Cl)cc2Cl)n1 | -4 | 4766 | -1.4 | 3 | -4 | -6 | -25
N/C(=N\OC(=O)c1cc(-c2ccccc2)nc2ccccc12)c1ccccn1 | . | 2508 | . | . | . | -3 | 7
COC(=O)C(O)(c1ccc(NC(=O)NC2CCCCC2)cc1)C(F)(F)F (configuration not stated) | -6 | 2433 | 3.9 | -16 | 15 | -5 | -44
Cc1cccc(N(CC(=O)NN=Cc2ccc(C(=O)O)cc2)S(=O)(=O)c2ccccc2)c1C | 6 | . | 4.2 | 4 | 2 | . | .
CCCc1nnc(SCC(=O)Nc2ccc3c(c2)OCCO3)n1CCOC | 13 | 3065 | 1.3 | 9 | 8 | -13 | -11
CCOC(=O)N1CCN(c2nnc(-c3ccc(C)cc3)c3ccccc23)CC1 | -3 | 3550 | -0.8 | 16 | 9 | 3 | -36
NC(N)=Nc1nc2ccc(Br)cc2c(=O)[nH]1 | . | 4288 | . | . | . | -25 | -22
OCCN(Cc1ccccc1)Cc1ncccc1O | 0 | 3734 | -0.8 | 8 | 8 | . | -3
COc1ccc(CCNC(=O)c2cc3ccccn3n2)c(OC)c1OC | -6 | 7407 | -9.2 | 5 | 11 | 2 | -24
OC1(c2cccs2)CN(c2ccc(Br)cc2)C2=[N+]1CCCS2 (configuration not stated) | 8 | 4133 | 3.9 | 4 | 3 | 4 | -20
COCCNc1ncnc2c1cnn2-c1ccc(Cl)cc1 | 1 | ? | 2.4 | 6 | 15 | 2 | -32
CC12CCC(C(=O)NCCCn3ccnc3)(OC1=O)C2(C)C (configuration not stated) | -4 | 4914 | 0.5 | . | . | -8 | -4
COC(=O)C1CCN(S(C)(=O)=O)CC1 | 1 | 4484 | 1.7 | -2 | -1 | -4 | 0
O=S(=O)(NCC1CN(S(=O)(=O)c2c(F)cccc2F)C1)c1ccc2c(c1)OCCO2 | 2 | 3973 | 3.8 | 4 | 7 | . | -12
COc1ccc(C)cc1S(=O)(=O)N1CCC(C(=O)NCCC2=CCCCC2)CC1 | 3 | 9974 | -0.6 | 5 | 10 | -2 | -16
CCN(Cc1ccccc1)C(=O)COc1cc(=O)n(CC)c2ccccc12 | -1 | 9919 | -2.9 | 8 | 1 | -4 | -13

Next part
SMILES | ugtP null kill | Bead autofluor | RN4220 kill | Mtb hypoxia inh | Mtb hypoxia inh growth | BJeLR lethal | PrP 5UTR inh
O=C(c1cc(Cl)ccc1OCc1ccccc1)N1CCOCC1 | 7 | 5377 | 0.9 | 3 | 10 | 11 | -31
CCC1=Nc2cc(C(=O)NCc3ccco3)ccc2Sc2ccc(Cl)cc21 | -12 | 2371 | -10 | 4 | 13 | 13 | -27
O=C(CCC1CCCCC1)NCc1cccs1 | 6 | 4875 | 4.5 | . | . | 5 | -4
NC(=O)c1cc2ccc(O)cc2oc1=NCc1ccccc1 | -12 | 11165 | 5.8 | -2 | 1 | -5 | -9
O=C(O)c1cc(/C=C/c2ccc(N3CCOCC3)cc2)nc2ccccc12 | 11 | 4402 | 3.4 | 15 | 12 | . | 1
Cc1cc(CNC(=O)C2(C(F)(F)F)C/C(=C\Cc3ccccc3)CCCO2)nn1C (configuration not stated) | . | 3278 | . | . | . | 16 | -15
Brc1ccc(-c2noc3c2-c2nc(C4CCCCC4)sc2CC3)cc1 | 6 | 3542 | -4.4 | 5 | 8 | -1 | 3
COc1ccc(/C=C(\C#N)C(=O)OC2CCOC2=O)cc1 (configuration not stated) | 2 | 3932 | 7.0 | 6 | 6 | -3 | -8
COCCNC(=S)N1CCC(C(=O)c2ccc(F)cc2)CC1 | 10 | 2839 | 2.3 | 14 | 7 | . | -20
O=C(CCNC(=O)c1ccccc1Cl)NN1C(=O)NC2(CCCCC2)C1=O | 1 | 5424 | 1.0 | 8 | 8 | 8 | -11
COc1ccc(C2(C(=O)Nc3ccc(C(=O)N4CCOCC4)cc3)CCOCC2)cc1 | 4 | 4316 | 1.0 | . | . | 16 | -15
Cc1cc(C)nc(NC(=O)Nc2ccc(F)cc2F)n1 | 2 | 5052 | 1.1 | 15 | 8 | -8 | 3
CCOC(=O)c1ccc(NC(=S)NCCc2ccc(F)cc2)cc1 | -29 | 4662 | 3.1 | 8 | 5 | -4 | -21
O=[N+]([O-])c1cc(Cl)ccc1-c1nc(-c2ccncc2)no1 | -5 | 1989 | 5.9 | 11 | 4 | -7 | -50
Cn1c(=O)c2c([nH]c(OCc3ccc(Cl)cc3Cl)[n+]2Cc2ccc(F)cc2)n(C)c1=O | 6 | 4135 | 1.4 | -10 | -5 | -9 | -38
Cc1noc(NS(=O)(=O)c2ccc(NC(=O)c3ccc(N4C(=O)c5ccccc5C4=O)cc3)cc2)c1C | 1 | 2056 | -0.1 | 10 | 7 | -2 | 2
O=[N+]([O-])c1ccc(NNC(=S)Nc2ccc(F)cc2)cc1 | 24 | 8940 | 28 | -2 | -11 | 3 | -68
O=C(O)C1CSC2(c3ccc4c(c3)OCCO4)CCC(=O)N12 (configuration not stated) | 2 | 4876 | -0.7 | 1 | 5 | 5 | -5
Cc1cc(-c2cccs2)c(C#N)c(=S)[nH]1 | 2 | 3385 | 4.3 | 2 | 0 | -1 | -16
CCCCCC(=O)N/N=C/c1ccco1 | . | 2596 | . | . | . | 1 | -17
Cc1nc2cc(-c3ccc(Cl)cc3)nn2c(C)c1CCC(=O)NCc1ccco1 | 16 | 5867 | -3.0 | -3 | 6 | -3 | -8
COc1ccc(NC(=O)C2CC=CC3CCN(Cc4ccc(Cl)c(Cl)c4)C(=O)C32)cc1 (configuration not stated) | 6 | . | -3.5 | 0 | 3 | . | .
Cc1ccc2c(c1)sc(=NC(=O)C1CC1)n2C | 7 | 4156 | 3.6 | 6 | 14 | 0 | -48
CC=CC=CC(=O)Nc1cccc(C2=NOC3(C2)CC(C(N)=O)N(C(=O)c2ccc(Cl)cc2)C3)c1 (configuration not stated) | -2 | . | 9.5 | 15 | 11 | . | .
CCOC(=O)c1cncc(C#CCO)c1 | 5 | 5911 | 4.0 | 16 | 20 | -1 | -27

Pulled by structure from the entries so far, 3 records:
SMILES | ugtP null kill | Bead autofluor | RN4220 kill | Mtb hypoxia inh | Mtb hypoxia inh growth | BJeLR lethal | PrP 5UTR inh
O=C(O)c1cc(/C=C/c2ccc(N3CCOCC3)cc2)nc2ccccc12 | 11 | 4402 | 3.4 | 15 | 12 | . | 1
CCCCCC(=O)N/N=C/c1ccco1 | . | 2596 | . | . | . | 1 | -17
Cc1cc(-c2cccs2)c(C#N)c(=S)[nH]1 | 2 | 3385 | 4.3 | 2 | 0 | -1 | -16

(next part)
SMILES | ugtP null kill | Bead autofluor | RN4220 kill | Mtb hypoxia inh | Mtb hypoxia inh growth | BJeLR lethal | PrP 5UTR inh
CC(=O)N1CCC(N(CCN2CCOCC2)C(=S)Nc2cccc(C)c2C)CC1 | 4 | 2491 | -1.4 | -2 | 5 | 2 | -16
CSc1ccc(CNC(=O)C2CCC(=O)N(CCc3cccc(F)c3)C2)cc1 (configuration not stated) | 12 | 5075 | 1.7 | 2 | 4 | 7 | -4
CCOC(=O)C1CCCN(C(=O)c2cc(-c3ccc(F)cc3)nc3ccccc23)C1 (configuration not stated) | -2 | 2128 | 7.3 | 11 | 2 | 7 | -8
CNc1csc(C)c(C)c1=O | -7 | 7637 | -1.6 | -5 | 4 | 0 | -17
CC1(C)CC(=O)C=C(Nc2ccc(S(N)(=O)=O)cc2)C1 | 7 | 10993 | 0.9 | 8 | 14 | 1 | -21
O=C(CCNC(=O)c1ccccc1)Nc1cccnc1 | 2 | 3226 | 4.5 | 3 | 5 | 7 | -18
CC(O)C1CNC(=O)C(=O)N1CCc1cccc2ccccc12 (configuration not stated) | 5 | . | 3.9 | 15 | 13 | . | .
CCN1C[C@@H]2[C@@H]3C(=O)N(Cc4ccccc4)C(=O)[C@@H]3[C@](CC)(C(=O)OC)N2C1=NC1CCCCC1 | -3 | 3370 | 1.1 | 1 | 5 | . | -10
Cc1ccc2cc(CN(CC(C)C)S(=O)(=O)c3cccc4nonc34)c(=O)[nH]c2c1 | 2 | 5641 | 3.7 | 8 | -1 | 5 | -10
COc1ccc(-c2ocnc2C(=O)Nc2ccc3c(c2)CCC3)cc1 | 8 | 2940 | 2.3 | -1 | -2 | -15 | -29
Cc1ccc(NC(=O)COC(=O)c2ccccc2Cl)cc1S(=O)(=O)N(C)C | 0 | 4244 | 2.6 | 1 | 2 | 6 | -23
Cc1occc1C(=O)N/N=C/c1sc(N2CCOCC2)nc1-c1ccccc1 | . | 3290 | . | . | . | -2 | 0
CCCNC(=O)c1csc2c1CCCCC2 | -3 | 4595 | 6.5 | . | . | 0 | -14
CCCOc1ccc(N2C(=O)CC(SC(=NC)Nc3ccc(F)cc3)C2=O)cc1 (configuration not stated) | -2 | 3466 | 0.6 | 1 | 2 | -2 | 1
CSCCC(NC(=O)C1CCC(C)CC1)C(=O)NCCN1CCOCC1 (configuration not stated) | -4 | 22383* | 0.6 | -5 | 3 | 0 | -1
Cc1ccccc1OCC(=O)NNC(=O)Nc1ccccc1 | 7 | 4420 | 4.6 | 5 | 16 | -19 | -28

Full records from above:
Results for `CCN1C[C@@H]2[C@@H]3C(=O)N(Cc4ccccc4)C(=O)[C@@H]3[C@](CC)(C(=O)OC)N2C1=NC1CCCCC1` → ugtP null kill = -3; Bead autofluor = 3370; RN4220 kill = 1.1; Mtb hypoxia inh = 1; Mtb hypoxia inh growth = 5; BJeLR lethal = .; PrP 5UTR inh = -10
Results for `Cc1ccc(NC(=O)COC(=O)c2ccccc2Cl)cc1S(=O)(=O)N(C)C` → ugtP null kill = 0; Bead autofluor = 4244; RN4220 kill = 2.6; Mtb hypoxia inh = 1; Mtb hypoxia inh growth = 2; BJeLR lethal = 6; PrP 5UTR inh = -23
